# eIF4H inh: human eIF4H binding inhibitors, primary screen, translation initiation inhibitor project, biochemical, uHTS, fluorescence polarization. AID 2012, 2009. eIF4H fluorescence polarization binding assay. actives 0.94% (n = 290,000). inhibition, % at 35 µM. Eukaryotic translation initiation factor 4H (Homo sapiens), Q15056;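 active = 50% or more with normal probe brightness, or confirmed in later tests; inconclusive = above 50% with abnormal brightness, or retests that disagree; inactive = below 50% or failed in later tests; about a fifth of its hits are not listed in these tables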;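 also: calls also rest on retests at 20 µM and on dose response follow-up; 0% = protein and probe with vehicle and 100% = probe without protein; strong numbers were not always called active; many hits fall short of the cut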
# Yeast UUG start: modulators of yeast start codon fidelity, primary screen, whole organism, S. cerevisiae, single point, plate reader | S. cerevisiae UUG-firefly luciferase reporter, luminescence/redox ratio | activity score, % at 18.7 µM | actives 0.13% (n = 350,000) | AID 602363, 2012;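 active = replicate mean at a twofold rise or more, about +100% in these data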;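 also: firefly luciferase made from a UUG start codon reports start codon fidelity; reporter light over untreated wells divided by growth signal over untreated wells; some hits fall short of that in this replicate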
# HIV Env fusion: inhibitors of HIV-1 Env-driven cell-cell fusion, primary screen, HeLa-JRFL effector, CEM21 target cells, luciferase; inhibition, % at 12.3 µM; actives 1.1% (n = 360,000);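 active = mean replicate inhibition score of at least 50 and every replicate individually at or above 50; inconclusive = only one of the two criteria met; inactive = mean below 50 and not all replicates reaching 50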;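 also: 0% = plate neutral controls and 100% = maraviroc near 300 nM; one replicate is shown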
# PABP polyA inh: PABP poly(A) RNA binding inhibitors, primary screen, biochemical, fluorescence polarization, uHTS | inhibition, % at 35 µM | actives 1% (n = 290,000) | AID 2014, 2009;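 active = 50% or more with normal probe brightness, or confirmed in later tests; inconclusive = above 50% with abnormal brightness, or retests that disagree; inactive = below 50% or failed in later tests; about a fifth of its hits are not listed in these tables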;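 also: calls also rest on retests at 20 µM and on dose response follow-up; controls were probe without protein and protein plus probe with vehicle; some compounds called inactive have numbers as strong as hits; many hits fall short of the cut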
# Target sequence (P11940 whole entry, looked up): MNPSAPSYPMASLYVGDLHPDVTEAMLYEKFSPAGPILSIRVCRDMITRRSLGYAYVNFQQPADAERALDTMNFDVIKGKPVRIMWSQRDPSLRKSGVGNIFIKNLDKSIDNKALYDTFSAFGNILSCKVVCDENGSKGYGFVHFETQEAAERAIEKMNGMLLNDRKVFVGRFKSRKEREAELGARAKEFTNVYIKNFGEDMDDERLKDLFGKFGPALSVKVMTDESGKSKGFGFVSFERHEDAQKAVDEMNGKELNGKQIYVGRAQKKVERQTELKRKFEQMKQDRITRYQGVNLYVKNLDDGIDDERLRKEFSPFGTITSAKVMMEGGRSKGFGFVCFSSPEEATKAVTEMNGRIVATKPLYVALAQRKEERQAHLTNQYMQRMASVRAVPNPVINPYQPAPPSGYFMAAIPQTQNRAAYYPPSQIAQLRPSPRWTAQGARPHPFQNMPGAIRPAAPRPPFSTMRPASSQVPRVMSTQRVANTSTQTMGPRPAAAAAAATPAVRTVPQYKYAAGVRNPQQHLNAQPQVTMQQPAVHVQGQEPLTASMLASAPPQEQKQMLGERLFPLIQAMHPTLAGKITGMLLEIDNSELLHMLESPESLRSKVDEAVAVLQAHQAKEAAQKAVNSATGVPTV
# MT1-MMP act inh: blockers of MT1-MMP proenzyme processing, primary screen, HT1080 RFP-PRO-GFP cells, GFP/RFP fluorescence. GFP/RFP ratio fluorescence, overnight; percent of plate control window, DMSO zero. Matrix metalloproteinase-14 (Homo sapiens), P50281. GFP/RFP ratio change, % at 20 µM. AID 651647, 2012. actives 0.061% (n = 360,000);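 active = GFP/RFP ratio change of at least 30% with cell ATP level not reduced by more than half and red fluorescence within 50% of control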; also: strong numbers were not always called active
#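 Compound: 20 µM single dose, 1% DMSO / System: HT1080 RFP-PRO-GFP cells / Controls: DMSO and RFP-L50D-GFP cell wells / Read-out basis: GFP/RFP fluorescence ratio / Schedule: overnight compound exposure at 37 °C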
# Rce1 inh: yeast Rce1p protease inhibitors, primary screen, biochemical, fluorescence, cell-free homogeneous. CAAX prenyl protease 2 (Saccharomyces cerevisiae (strain ATCC 204508 / S288c)), Q03530. yeast membranes, quenched prenylated peptide cleavage fluorescence. calls only. actives 0.27% (n = 290,000);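 active = fall in fluorescence gain of 50% or more versus controls, with final raw signal at or below 3038400; inconclusive = same 50% fall but final raw signal above 3038400; inactive = fall in fluorescence gain under 50%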;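 also: plate controls were neutral control wells for no effect and wells lacking membranes for full effect; tested at 10 µM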
# Target sequence (Q03530 whole entry, looked up): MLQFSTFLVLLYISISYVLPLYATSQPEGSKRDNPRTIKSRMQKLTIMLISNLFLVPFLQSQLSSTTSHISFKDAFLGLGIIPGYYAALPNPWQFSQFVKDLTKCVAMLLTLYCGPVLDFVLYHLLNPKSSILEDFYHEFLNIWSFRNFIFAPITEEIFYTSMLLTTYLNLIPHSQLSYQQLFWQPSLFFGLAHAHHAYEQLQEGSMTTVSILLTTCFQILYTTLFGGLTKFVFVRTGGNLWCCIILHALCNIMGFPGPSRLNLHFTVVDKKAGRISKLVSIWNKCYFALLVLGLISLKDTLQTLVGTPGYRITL
# CSC inhib: cancer stem cell viability inhibitors, primary screen, luminescence; actives 1.1% (n = 300,000); cancer stem cell-like cells viability; inhibition, % at 7.5 µM; AID 2717, 2010;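 active = mean at 75% or more and at least half the replicates too; inconclusive = mean and replicates disagree; tested in HMLE shEcad cells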;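 also: 0% = median of negative and 100% = median of positive control wells; the first replicate is given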
# eIF4H inh retest: also measured in eIF4H inh; calls as there; inhibition, %; compound at 20 µM; confirmation average;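 mean of two retest wells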
# PABP polyA inh retest: second read-out of PABP polyA inh, no call of its own (marks repeat the call); inhibition, %; compound at 20 µM; confirmation repeats;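 mean of two retest wells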
# MT1-MMP act inh RFP: also measured in MT1-MMP act inh; calls as there; RFP signal change, %; measured here: RFP expression control read;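 0 = vehicle wells; hits needed this value within 50% of zero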
# * = called active by the depositor; i = inactive; ? = inconclusive; / = no result given.
# Sample of the layout (three entries):
SMILES,eIF4H inh,Yeast UUG start,HIV Env fusion,PABP polyA inh,MT1-MMP act inh,MT1-MMP act inh RFP,Rce1 inh,CSC inhib,others
Cc1cc(=O)[nH]c(N)n1,-7,-8,-2,-10,3,5,i,1,
O=C(CNC(=O)c1ccc2ccccc2c1)OCC(=O)N1CCN(S(=O)(=O)c2ccc3ccccc3c2)CC1,-2,16,8,0,3,4,i,-11,
CN(Cc1ccco1)c1ncnc2ccc(-c3ccccc3Cl)cc12,/,-18,-34,/,1,-15,/,7,

# This part in full, from the start:
SMILES,eIF4H inh,Yeast UUG start,HIV Env fusion,PABP polyA inh,MT1-MMP act inh,MT1-MMP act inh RFP,Rce1 inh,CSC inhib,others
Cc1cc(=O)[nH]c(N)n1,-7,-8,-2,-10,3,5,i,1,
O=C(CNC(=O)c1ccc2ccccc2c1)OCC(=O)N1CCN(S(=O)(=O)c2ccc3ccccc3c2)CC1,-2,16,8,0,3,4,i,-11,
CN(Cc1ccco1)c1ncnc2ccc(-c3ccccc3Cl)cc12,/,-18,-34,/,1,-15,/,7,
COC(=O)c1cc(OC)c(OC)cc1NC(=S)N1CCC(C(N)=O)CC1,-1,-19,/,1,-1,0,i,-5,
COCc1nc2ccccc2n1Cc1c(F)cccc1Cl,-11,/,7,-5,-4,-5,i,-15,
CS(=O)(=O)N1CCN(C2Cc3ccccc3C2)CC1,-10,-18,/,4,-4,3,i,7,
COc1ccc(CN(C)C(=O)CNC(=O)c2ccc(C)cc2)cc1,0,-8,4,-8,1,1,i,-5,
COc1ccc(C(=O)NCC(=O)OCc2ccc(Br)cc2)cc1,0,/,-7,19,-1,4,i,-1,
COc1ccc([C@@H]2CC=C(C(=O)O)CN2S(=O)(=O)c2ccc(Cl)cc2)cc1,/,-7,35,/,6,0,/,-5,
CC(C)COC(=O)C(C#N)c1nc2ccccc2nc1N1CCN(Cc2ccc3c(c2)OCO3)CC1 (stereo not drawn),68,-7,/,49,-20,-5,i,-17,eIF4H inh retest=6;PABP polyA inh retest=22
Cc1ccc(NC(=O)NC2CCCCCCC2)cc1C,0,-22,-107,-1,0,-1,i,-9,
Cc1cc(OC(=O)c2ccccc2)n(CCC#N)n1,-5,-10,-43,-1,6,6,i,3,
Cc1cccc(OCCNC(=O)CCc2ccccc2)c1,/,-6,11,/,1,1,i,-16,
CC(C)CN1CC(C)C(=O)N(c2ccccc2)C1=O (stereo not drawn),/,8,-4,/,2,3,/,/,
Nc1nc(N2CCCCC2)nc2ccccc12,0,-11,/,12,-3,0,i,1,
Cc1ccc(SCC(=O)N2CCOCC2)cc1,5,-6,-7,0,-12,6,i,0,
Cc1ccc(-c2nc(CS(=O)(=O)CC(=O)NCCN3CCCC3)c(C)o2)cc1,9,-10,4,-6,1,2,i,-5,
O=C(Nc1ccccc1Cl)NC1(C(=O)NCCCN2CCOCC2)CCCCC1,1,-4,-3,-1,-13,0,i,1,
O=C(/C=C/c1ccc([N+](=O)[O-])cc1)c1cccs1,-8,-12,14,7,0,0,i,20,
CN(c1ccccc1)S(=O)(=O)c1cccc(C(=O)NNC(=O)c2ccccc2)c1,-9,-4,17,15,-4,-24,i,0,
Cc1ccc(C)c(C(=O)COC(=O)c2cccc(N3C(=O)c4c(C)nc5ccccc5c4C3=O)c2)c1,-3,/,2,7,10,12,i,1,
CN(Cc1ccccc1)C(=O)c1nc2ccccn2c1CN1CCC(N2CCOCC2)CC1,-5,2,2,-1,4,3,i,0,
CC(=O)c1ccc(NC(=S)Nc2ccc3[nH]c(=O)[nH]c3c2)cc1,8,-27,-14,-3,0,2,i,-10,
O=C(CSC1=NS(=O)(=O)c2cc(F)ccc2N1)Nc1ccccc1F,/,/,-9,/,-3,0,i,14,
CCOC(=O)C1CCCN(C(=S)NC2CCCC2)C1 (stereo not drawn),-10,/,1,-14,0,5,i,-56,
CCC(CC)C(=O)Nc1nnc(SCC(=O)NC2CCCCC2)s1,-2,-8,7,-4,2,2,i,-5,
C/C(CC(=O)NC(C)C)=N\NC(=O)COc1cc(C)c(Br)cc1Br,4,/,/,5,-4,-2,i,-8,
Cc1cc(NC(=O)CSc2nncc(=O)n2N)no1,4,-8,-2,12,-2,-2,i,-8,
CC(C)(C)c1ccc(C(=O)O[C@H]2[C@H](Cc3ccccc3)NS(=O)(=O)[C@H]3C[C@@H]4C=C[C@]23O4)cc1,/,-8,-23,/,-3,-5,/,4,
CC[N+](CC)(CC#Cc1ccccc1)CC(=O)c1ccc(Cl)cc1,2,/,11,4,-13,-3,i,11,
Cc1ccc(OCC(=O)O/N=C(\N)c2ccccn2)cc1C,-8,-25,-51,-4,2,-4,i,-3,
O=C(Cn1cc(/C=N/NC(=O)c2cccc(C(F)(F)F)c2)c2ccccc21)Nc1ccc(F)cc1,-14,-10,/,-1,2,-9,i,-2,
CC(=O)c1ccc(OCc2cc(C(=O)N(C)Cc3ccccn3)no2)cc1,2,-8,-26,0,-1,1,i,-10,
CCOC(=O)Sc1nc2ncncc2[nH]1,/,-14,-17,/,4,3,/,/,
CN(Cc1ccc(Cl)c(Cl)c1)C(=O)C1CC(=O)N(c2ccc3c(c2)OCCO3)C1 (stereo not drawn),/,-1,-4,/,1,6,/,/,
CCOC(=O)C1CCCN(C(=O)c2ccc(OC)cc2OC)CC1 (stereo not drawn),/,-5,-2,/,1,1,/,/,
O=C(Nc1ccccc1)c1cc(C2COCCN2C(=O)c2cccs2)on1 (stereo not drawn),/,-5,6,/,-3,0,/,/,
Cc1c(C(=O)c2cccc(F)c2)c2ccccn2c1CCC#N,-3,/,2,13,-2,0,i,/,
CC(C)[C@H]1COCCS(=O)(=O)N1Cc1cccc(Cl)c1,-4,-3,-14,-5,-2,1,i,-4,
CSc1ccccc1OCc1cc(C(=O)N2CCC[C@H]2C(N)=O)no1,-14,-12,3,-5,-1,1,i,-15,
O=C(NCc1ccccn1)c1nnc(Cc2ccc(Cl)cc2)o1,5,-4,-17,2,6,5,i,0,
CCN(CC)c1ccc(/C=N/NC(=S)NCc2ccco2)cc1,-9,/,1,-2,-3,1,i,5,
CNc1ncnc2c1ncn2[C@H]1CN(Cc2cccs2)C[C@@H](CO)O1,/,-14,48,/,-2,1,/,/,
Cc1ccc(S(=O)(=O)n2nc(OC(=O)c3cccc(F)c3)cc2N)cc1,3,-2,-27,1,2,1,i,16,
COc1ccccc1CC(=O)OC(C)C(=O)Nc1ccc(S(=O)(=O)N2CCCCC2)cc1 (stereo not drawn),/,-2,-8,/,4,-1,/,/,
Nc1c(Cl)cc(-c2csc(NC(CO)c3nc4ccccc4n3CCOCCO)n2)cc1Cl (stereo not drawn),/,-15,-53,/,-3,-2,i,-2,
Cc1[nH]c2ccccc2c1C(=O)CN1CCCCC1C (stereo not drawn),-1,-9,/,11,-1,0,i,-11,
S=c1[nH]c(-c2ccc(Br)cc2)cn1CCc1ccccc1,-12,/,-18,2,1,-3,i,-17,
Cc1cc(C)n2nc(SCc3nnc(-c4cccs4)o3)nc2n1,-19,/,-4,-8,2,5,i,-2,
Cc1nc2ccc(NC(=O)CS(=O)(=O)c3ccc(F)cc3)cc2s1,/,-13,-48,/,-4,-3,i,-16,
COc1ccc(/C=C2/C(=N)N3N=C(CC(=O)N4CCCC4)SC3=NC2=O)cc1,/,-11,6,/,-4,2,i,-9,
COc1cccc(NC(=S)/C(=C(\[O-])c2cc(C)n(-c3ccccc3F)c2C)[n+]2ccc(N(C)C)cc2)c1,8,/,23,-15,-10,-11,i,19,
O=C1NC(=O)C2(COC(c3ccncc3)OC2)S1 (stereo not drawn),0,/,-16,4,0,3,i,-19,
CCCCc1c(O)nc(SCC(=O)N2CCOCC2)[nH]c1=O,-14,-2,/,-8,9,3,i,-5,
COc1ccc(C(=O)Nc2cccc(C(=O)N3CCN(C)CC3)c2)cc1,-4,-3,/,-2,1,-1,i,-4,
Cn1c(Cc2ccccc2)nnc1SCC(=O)c1ccc(Br)s1,-12,-10,-7,0,-5,-1,i,3,
COc1ccc(OC)c(NC(=O)Nc2ccccc2C)c1,2,-14,/,-6,0,-3,i,-20,
Cc1ccccc1NC(=O)c1cn(-c2ccccc2)nc1-c1ccccc1,-14,/,8,-1,-1,-10,i,11,
O=C(CSc1nnc(Cc2cc(=O)[nH]c(=O)[nH]2)n1-c1ccc(Cl)cc1)N1CCc2ccccc21,-4,/,/,-18,/,/,i,-3,
CCOC(=O)C1CCN(C(=O)c2sc3nc(-c4ccc(F)cc4)cn3c2C)CC1,1,-22,?,-3,2,-1,i,-3,
# (continued)
SMILES,eIF4H inh,Yeast UUG start,HIV Env fusion,PABP polyA inh,MT1-MMP act inh,MT1-MMP act inh RFP,Rce1 inh,CSC inhib,others
COc1ccc2cc(/C=C/C(=O)c3ccco3)c(Cl)nc2c1,105,/,/,112,/,/,i,8,eIF4H inh retest=-5;PABP polyA inh retest=-4
Cc1cc(=O)[nH]c2ccc(S(=O)(=O)NCc3ccccc3)cc12,2,-1,11,2,1,-1,i,10,
COc1ccc(CCC(=O)N2CCN(C3CCCCC3)CC2)cc1,1,-12,-12,-7,1,3,i,-7,
CC(=O)c1ccc(C(=O)NC2CCCN(Cc3ccccc3F)C2)s1 (stereo not drawn),-2,-4,-1,-8,1,5,i,0,
CCC(C)NCCOc1cccc(Br)c1 (stereo not drawn),2,-18,2,-5,3,9,i,-3,
O=C(O)c1ccc(N2Cc3ccccc3C2)cc1O,0,-38,/,31,-2,3,i,-7,
CC(C)CC(=O)NC1(C(F)(F)F)C(=O)N(Cc2ccccc2)C2=C1C(=O)CC(C)(C)C2 (stereo not drawn),-7,-3,-19,-12,0,1,i,-9,
CC(C)C[C@H]1CNC(=S)N1CC1CCCN1C[C@H](CC(C)C)N1C[C@H](CC(C)C)N(CC2CCCCCC2)C1=S (stereo partly drawn),/,-15,-6,/,-4,-15,/,/,
O=c1[nH]nc(-c2ccc(F)cc2)cc1Cc1ccccn1,4,6,-16,-4,1,-1,i,-9,
O=C(Cc1ccccc1)NCCCc1ccccc1,1,-5,/,4,2,9,i,-2,
COC(=O)CN(C)C(=O)c1ccc2nc(Cc3cccc(Cl)c3)oc2c1,10,-10,-51,0,5,4,i,-19,
O=C(O)c1ccc(S(=O)(=O)c2ccccc2)cc1,-8,-20,-85,-2,4,1,i,-3,
Cc1cc(Br)ccc1NC(=O)CN(C)C(=O)Cn1c(=O)cnc2ccccc21,-4,-6,-4,84,2,-1,i,/,eIF4H inh retest=-8;PABP polyA inh retest=32
CN(C)C(=O)C1CCC(=O)N1Cc1cccs1 (stereo not drawn),13,/,-10,1,-9,-6,i,-3,
Cc1ccc(CCNC(=O)CN(C)S(=O)(=O)c2ccc3c(c2)n(C)c(=O)c(=O)n3C)cc1,0,/,15,-3,-5,-2,i,/,
O=C(Cc1ccc(Cl)c(Cl)c1)OCC(=O)c1ccc[nH]1,7,10,-4,2,5,5,i,-7,
CN1CCN(c2ncnc3sc(-c4ccccc4)cc23)CC1,7,/,-1,-3,-1,-2,i,8,

# Not all compounds are listed; the hit share may differ from the screen's.
